Rango release inh: inhibition of RanGTP-driven Rango-importin beta dissociation; O95149+P62826; Biochemical FRET Rango-importin beta, RanGTP-induced dissociation; Potency, µM (titrated, usually from 46.1 µM), without a hit: at the highest dose activity change, negative = inhibition; 0.071% of 340,000 active; AID 540253; active means falling FRET ratio curve, often poorly fitted, with flat reads before Ran was added; inconclusive means other falling curves, or compound fluorescence or quenching; inactive means flat or rising ratio curve;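 note: potency is the fitted concentration of half-maximal effect; % of control where 0% means no effect; nearly all actives have a fitted effect of over 45% in size; -100% = wells without RanGTP and RCC1; the record marks most hits as doubtful in a second field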
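Recombinant Rango FRET biosensor (EYFP–snurportin 1 IBB–cerulean CFP10) at 0.1 uM premixed with 0.25 uM importin beta in PBS, 1 mM DTT, 0.02% Tween-20, 0.1% BSA. Compound added 5 min; RanGTP-RCC1 (0.6 uM Ran, 2 mM GTP, 0.2 uM RCC1) then triggers release, read at 45 min.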
miR-21 reporter: raises the signal of a miR-21 reporter; HeLa miR-21 FLuc reporter, luciferase, 48 h; Potency, µM (titrated, usually from 38.3 µM), for the others: top-dose reporter change, positive = more light; 340,000 tested, under 10 active; AID 2288; active = well fitted rising curve with a large enough effect; inconclusive = small, poorly fitted or top-dose-only effect; inactive = no such curve, though single readings can be large or run the other way;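 note: % of control where 0% means no effect; miR-21 action dims this reporter so a rising signal means less miR-21 action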
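HeLa cells endogenously expressing miR-21, stably carrying CMV-driven firefly luciferase with a downstream miR-21 binding site, 2000 cells/well. Titrations up to approximately 40 uM, 48 hours; luciferase luminescence read.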
Rango complex inh: Rango-importin beta binding inhibition; Q14974; Rango CFP/YFP FRET sensor + importin beta, 45 min; 0.031% of 340,000 active; AID 540263; Potency, µM (titrated, usually from 92.2 µM), for the others: top-dose inhibition of complex formation; active = rising FRET ratio curve, often small or poorly fitted; inconclusive = mostly compound fluorescence or quenching in the first reads; inactive = flat curves in all reads;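 note: potency is the fitted concentration of half-maximal effect; 0% = DMSO wells and 100% = buffer wells lacking importin beta; nearly all actives have a fitted effect of over 15% in size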
Target sequence (Q14974 whole entry, looked up): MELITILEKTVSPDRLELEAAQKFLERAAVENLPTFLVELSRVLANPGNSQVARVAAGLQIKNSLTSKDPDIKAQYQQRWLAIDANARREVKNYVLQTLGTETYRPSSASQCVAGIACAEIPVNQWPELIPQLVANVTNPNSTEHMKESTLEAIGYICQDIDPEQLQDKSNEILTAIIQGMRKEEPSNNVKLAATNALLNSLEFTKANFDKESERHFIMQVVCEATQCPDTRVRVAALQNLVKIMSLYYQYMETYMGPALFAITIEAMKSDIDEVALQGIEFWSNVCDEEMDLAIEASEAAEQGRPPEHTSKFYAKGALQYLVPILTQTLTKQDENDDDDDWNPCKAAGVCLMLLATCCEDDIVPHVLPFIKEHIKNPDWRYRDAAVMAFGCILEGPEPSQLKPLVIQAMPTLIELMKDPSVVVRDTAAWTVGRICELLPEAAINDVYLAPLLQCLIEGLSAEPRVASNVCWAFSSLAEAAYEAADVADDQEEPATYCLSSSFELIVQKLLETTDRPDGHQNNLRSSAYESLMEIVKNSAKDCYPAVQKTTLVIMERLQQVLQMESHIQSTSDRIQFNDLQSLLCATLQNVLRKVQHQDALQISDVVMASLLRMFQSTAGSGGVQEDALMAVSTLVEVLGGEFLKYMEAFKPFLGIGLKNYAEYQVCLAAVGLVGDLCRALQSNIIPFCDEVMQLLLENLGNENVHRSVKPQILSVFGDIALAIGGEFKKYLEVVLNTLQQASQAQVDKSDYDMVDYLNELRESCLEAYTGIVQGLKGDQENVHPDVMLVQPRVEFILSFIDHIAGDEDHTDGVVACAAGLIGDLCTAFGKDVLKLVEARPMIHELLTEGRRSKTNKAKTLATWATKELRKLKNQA
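Inhibition scored from the CFP 486 nm/YFP 530 nm FRET ratio 45 min after adding 0.125 microM importin beta to 50 nM Rango biosensor preincubated 5 min with compound (room temperature, PBS with DTT, Tween-20, BSA). No-importin wells as positive control.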
GLA inh pH 4.5: alpha-galactosidase A (human) inhibition, pH 4.5 | P06280 | purified enzyme, 4-MU-alpha-Gal fluorescence, pH 4.5 | activity change, negative = inhibition, % at 105 µM | 230,000 tested, under 10 active | AID 1467; inconclusive = small, poorly fitted or top-dose-only inhibition, or a rising curve; inactive = flat fitted curve, though single readings scatter; no compound was filed as active;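 note: 0% = full activity with enzyme and -100% = basal without enzyme; dose as in the result columns while the protocol names 77 µM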
The depositor's hits bear a star; u = inconclusive; x = not tested or not shown; [ ] = dose if it differs, or a comment. A portion of the library; rates above refer to the full screens.

Screens by letter – A = Rango release inh; B = miR-21 reporter; C = Rango complex inh; D = GLA inh pH 4.5
1	C/C(=N\N=C(c1ccccc1)c1ccccc1)c1ccco1
  A: -10% | B: -17% | C: -2.9% | D: -1

2	O=C(CO/N=C1\CCCc2nonc21)Nc1ccc(Br)cc1
  A: -1% | B: -10% | C: 0.2% | D: 6

3	COc1ccc(CN(C(=O)c2ccc(C)cc2)C2CCS(=O)(=O)C2)cc1 (stereo unspecified)
  A: 18% | B: -6% | C: 1.0% | D: x

4	O=C1NC2c3c(Cl)sc(Cl)c3C(=O)C2O1 (stereo unspecified)
  A: 6% | B: x | C: -3.0% | D: x

5	CC(NC(=O)CN(c1ccccc1F)S(C)(=O)=O)c1ccccc1 (stereo unspecified)
  A: -13% | B: 0% | C: -1.6% | D: x

6	N#Cc1c(NC(=S)NC(=O)C2CCCC2)sc2c1CCCCC2
  A: -2% | B: -28% | C: -0.6% | D: 3

7	CCC(CC)NC(=O)Cc1ccccc1OC
  A: -10% | B: 1% | C: 3.1% | D: 6

8	CN(c1cccc(NC(=O)CN2C(=O)c3ccccc3S2(=O)=O)c1)S(C)(=O)=O
  A: 1% | B: 3% | C: 0.5% | D: 1

9	O=C(Nc1ncccc1Cl)c1cccc(F)c1
  A: 2% | B: -21% | C: 9.5% | D: -12

10	O=C(O)c1ccccc1SSc1ccccc1C(=O)O
  A: 11% | B: 0% | C: 1.5% | D: x

11	CCOC(=O)CSc1nnc(CNC(=O)c2ccc(OC)cc2OC)n1-c1ccc(OC)cc1
  A: 7% | B: -1% | C: 3.1% | D: 2

12	Cc1nn(-c2ccccc2)c(Cl)c1C(=O)NCC(C)C
  A: 11% | B: -12% | C: 0.5% | D: -2

13	Cc1ccc(NC(=O)c2nc[nH]c2C(=O)NCCCNC(=O)c2[nH]cnc2C(=O)Nc2ccc(C)cc2)cc1
  A: -1% | B: x | C: -0.3% | D: x

14	C#CCCCCCCCCC(=O)NCCCC
  A: 18% | B: -3% | C: -0.8% | D: 3

15	COc1ccc(N(C(=O)c2cccnc2)S(=O)(=O)c2ccc3c(c2)n(C)c(=O)n3C)cc1
  A: -3% | B: -8% | C: -1.4% | D: 0

16	COc1cccc(NC(=O)c2nn(C)c3c2CS(=O)(=O)c2ccccc2-3)c1
  A: -9% | B: -5% | C: -3.1% | D: x

17	CCOC(=O)[C@H]1[C@H]2COc3ccc(OC)cc3[C@@H]2N2C(=O)c3cc(OC)ccc3NC(=O)[C@@]12C
  A: -5% | B: x | C: 3.8% | D: x

18	CCCC1=C(C(=O)OCC)C(c2ccc(F)cc2)n2ncnc2N1 (stereo unspecified)
  A: 23% | B: 9% | C: -2.4% | D: -8

19	CN(C)c1ccc(N=Nc2ccccc2C(=O)OCC(=O)N(C)c2ccccc2)cc1
  A: -19% | B: -21% | C: u | D: -4

20	Cc1cc(C)c2[nH]c(=O)c(CN(CC3CCCO3)S(=O)(=O)c3ccc4c(c3)OCCO4)cc2c1 (stereo unspecified)
  A: 12% | B: -5% | C: -7.4% | D: 3

21	O=C(c1ccc2ncsc2c1)N1CCN(c2ccccc2Cl)CC1
  A: 20% | B: -16% | C: -0.1% | D: u

22	Cc1[nH]c2ccccc2c1/C=N/NC(=S)NC(C)C
  A: 7% | B: -21% | C: u | D: -17

23	Cc1ccccc1NC(=O)NC1(C(=O)N2CCOCC2)CCCCC1
  A: 10% | B: 0% | C: -3.7% | D: 6

24	COc1ccc(-c2cc(C(F)(F)F)n3nc(C(=O)N4CCN5CCCC5C4)cc3n2)cc1OC (stereo unspecified)
  A: u | B: -6% | C: u | D: x

25	CC(=O)c1ccc(N2CCN(CC(=O)N(CC(C)C)c3c(N)n(CC(C)C)c(=O)[nH]c3=O)CC2)cc1
  A: -18% | B: 0% | C: -3.0% | D: -1[21.1 µM]

26	O=C(/C=C(O)/C=C/c1ccc(O)cc1)/C=C/c1ccc(O)cc1
  A: u | B: x | C: u | D: x

27	CN(C)C(CNC(=O)c1cc(S(=O)(=O)N2CCOCC2)ccc1Cl)c1cccs1 (stereo unspecified)
  A: -14% | B: x | C: u | D: x

28	Cc1ccc(S(=O)(=O)N2CCOCC2)cc1NC(=O)COC(=O)c1cc(=O)[nH]c2ccccc12
  A: -7% | B: 4% | C: 2.9% | D: -10

29	COC(=O)CCN(Cc1ccccc1)S(=O)(=O)c1ccccc1Br
  A: 10% | B: x | C: 2.8% | D: x

30	O=C(NCCCn1ccnc1)C1CC(c2cccc(Br)c2)=NO1 (stereo unspecified)
  A: -7% | B: -2% | C: u | D: 2

31	Cc1ccc(Cl)cc1NC(=O)CN1CCN(C(=O)C2CCCO2)CC1 (stereo unspecified)
  A: -12% | B: 0% | C: 0.1% | D: x

32	CSc1sc(C(=O)NN)c2c1C(O)CCC2 (stereo unspecified)
  A: -5% | B: x | C: 1.1% | D: x

33	N#CC(C(=O)Nc1ccccc1)=C1CCCCC1
  A: 1% | B: -12% | C: 1.3% | D: 6

34	Cc1cc(C)c(C)c(S(=O)(=O)N2CCN(C(=O)c3ccncc3)CC2)c1C
  A: -1% | B: x | C: -1.8% | D: x

35	CC(C)c1nc(NCCO)c2nnn(Cc3ccccc3)c2n1
  A: -12% | B: -17% | C: 3.2% | D: -2

36	CC1(C)Cc2ccccc2-c2nnc(SCc3ccccc3)n21
  A: 16% | B: -26% | C: -1.8% | D: -5

37	Cc1ccc(NC(=O)Cn2nnc(C(=O)NCc3ccco3)c2N)cc1
  A: 2% | B: 2% | C: 0.3% | D: 2

38	COc1ccc(N=C2SC(C(=O)Nc3ccc(OC)cc3)CC(=O)N2CCN2CCOCC2)cc1 (stereo unspecified)
  A: -16% | B: 0% | C: -0.1% | D: -3

39	CN(C)c1cccc(C(=O)NNC(=O)NC2CCCCC2)c1
  A: 0% | B: -1% | C: 5.9% | D: 1

40	CC1CCN(C(=O)CSc2nnc3c(n2)[nH]c2ccc(F)cc23)CC1
  A: 3% | B: 1% | C: 6.0% | D: x

41	COC(=O)/C=c1/s/c(=C(/C#N)C(=O)NCc2ccccc2)n(-c2ccccc2)c1=O
  A: 1% | B: 1% | C: 4.6% | D: -1

42	c1ccc(Nc2nc(-c3cccs3)cs2)nc1
  A: 12% | B: -7% | C: -2.4% | D: 2

43	CCC(C)NCC(=O)Nc1cc(S(=O)(=O)N(CC)c2ccccc2)ccc1Cl (stereo unspecified)
  A: 1% | B: 9% | C: 1.6% | D: -10

44	O=C(CSc1nc2ccccc2o1)N1CCOCC1
  A: -10% | B: -11% | C: -0.2% | D: x

45	O=C(c1ccc2ccccc2c1)N1CCN(S(=O)(=O)/C=C/c2ccccc2)CC1
  A: 1% | B: 0% | C: -3.1% | D: 2

46	CC(=O)c1ccc(S(=O)(=O)Nc2ccc(C(=O)NC3CC3)cc2)cc1
  A: -12% | B: x | C: 0.9% | D: x

47	CCOC(=O)c1c(NC(=S)NC(=O)c2ccc(Cn3cc(Cl)cn3)o2)sc2c1CCC(C)C2 (stereo unspecified)
  A: -14% | B: -3% | C: u | D: -3

48	O=C(O)C1CC=CCC1C(=O)Nc1ccccc1 (stereo unspecified)
  A: -17% | B: -24% | C: 1.8% | D: -4

49	O=C(NC1CCCN(Cc2ccc(Cl)cc2)C1)c1cnc2ccccn2c1=O (stereo unspecified)
  A: -8% | B: 8% | C: 0.9% | D: x

50	COc1ccc2c(C)cc3nncn3c2c1
  A: 6% | B: -4% | C: 3.1% | D: 13

(continued)
Screens by letter – A = Rango release inh; B = miR-21 reporter; C = Rango complex inh; D = GLA inh pH 4.5
51	COC(=O)c1ccccc1NC(=O)Nc1cc(C(C)(C)C)on1
  A: -12% | B: -51% | C: 0.4% | D: x

52	O=C(Nc1ccc(C(F)(F)F)cc1)N1CCN(c2ccnc3cc(Cl)ccc23)CC1
  A: 0% | B: u | C: 2.7% | D: -8

53	O=C(Nc1ccc2c(c1)C(N1CCOCC1)c1ccccc1-2)C(F)(F)F (stereo unspecified)
  A: -15% | B: x | C: -4.2% | D: x

54	O=C(CN1C(=O)CSc2ccc(S(=O)(=O)N3CCOCC3)cc21)NCCCN1CCOCC1
  A: 8% | B: -4% | C: 0.1% | D: -1

55	Cc1ccc(C)c(N2CCN(S(=O)(=O)c3cccc4cccnc34)CC2)c1
  A: -12% | B: 1% | C: -4.1% | D: 10

56	O=C(Nc1cccnc1)c1sc(Nc2ccccc2)nc1-c1ccccc1
  A: u | B: 1% | C: -2.7% | D: -6

57	CC1(c2cccc(Br)c2)NC(=O)N(CC(=O)NCC2CCCO2)C1=O (stereo unspecified)
  A: 5% | B: x | C: 1.1% | D: x

58	O=C(Nc1ccccc1)OCc1cn(-c2ccc(Cl)cc2)nn1
  A: 4% | B: -4% | C: -1.5% | D: -12

59	O=C(CSc1nncs1)NC(=O)NC1CCCC1
  A: 0% | B: -4% | C: 1.0% | D: 1

60	Cc1nc(C(=O)N2CCCC(C(=O)c3cccc(OC(C)C)c3)C2)cs1 (stereo unspecified)
  A: -14% | B: 9% | C: 4.9% | D: x

61	O=C(c1ccccc1)N1CCN(c2ccc([N+](=O)[O-])c(NCc3ccco3)c2)CC1
  A: 10% | B: -9% | C: -0.1% | D: 5

62	CS(=O)(=O)c1cnc(-c2ccccc2)nc1Sc1ccc(F)cc1
  A: 9% | B: -8% | C: 0.2% | D: x

63	O=C(Nc1ccc(F)c(F)c1)c1ccc(F)c(S(=O)(=O)N2CCOCC2)c1
  A: x | B: 20% | C: x | D: 12

64	Cc1ccc(CC2CC(=O)N(c3cc(C)ccc3C)C2=O)cc1 (stereo unspecified)
  A: 1% | B: 4% | C: 3.6% | D: x

65	O=S(=O)(c1ccc2ccccc2c1)N1CCNCC1
  A: 13% | B: -1% | C: 6.7% | D: x

66	CCN(C(=O)c1ccc(NC(=O)Cc2ccccc2)cc1)c1ccccc1
  A: 17% | B: -5% | C: -0.7% | D: x

67	Cc1cc2oc(=O)cc(CSc3nnc(C)n3N)c2cc1C(C)C
  A: -6% | B: -14% | C: -1.9% | D: -2

68	COc1ccc(OC)c2sc(NNC(=O)COc3ccccc3)nc12
  A: 0% | B: -4% | C: 1.3% | D: -16

69	CCOC(=O)Cc1csc(NC(=O)c2cccnc2)n1
  A: -9% | B: -1% | C: -4.4% | D: 4

70	CCOc1ccc2ncc(S(=O)(=O)c3ccc(C)cc3)c(N3CCC4(CC3)OCCO4)c2c1
  A: -2% | B: -4% | C: -0.5% | D: 0

71	COc1ccc(OC)c(S(=O)(=O)N2CCC(C(=O)NC3CCCC3)CC2)c1
  A: 24% | B: -4% | C: 3.6% | D: x

72	C(=N\N1CCOCC1)/c1cccs1
  A: 7% | B: -11% | C: 0.4% | D: 0

10 of the compounds above, with two lines to a compound:
Values run as follows: Rango release inh | miR-21 reporter | Rango complex inh | GLA inh pH 4.5
60) Cc1nc(C(=O)N2CCCC(C(=O)c3cccc(OC(C)C)c3)C2)cs1 (stereo unspecified)
  -14% | 9% | 4.9% | x
61) O=C(c1ccccc1)N1CCN(c2ccc([N+](=O)[O-])c(NCc3ccco3)c2)CC1
  10% | -9% | -0.1% | 5
62) CS(=O)(=O)c1cnc(-c2ccccc2)nc1Sc1ccc(F)cc1
  9% | -8% | 0.2% | x
63) O=C(Nc1ccc(F)c(F)c1)c1ccc(F)c(S(=O)(=O)N2CCOCC2)c1
  x | 20% | x | 12
64) Cc1ccc(CC2CC(=O)N(c3cc(C)ccc3C)C2=O)cc1 (stereo unspecified)
  1% | 4% | 3.6% | x
65) O=S(=O)(c1ccc2ccccc2c1)N1CCNCC1
  13% | -1% | 6.7% | x
66) CCN(C(=O)c1ccc(NC(=O)Cc2ccccc2)cc1)c1ccccc1
  17% | -5% | -0.7% | x
67) Cc1cc2oc(=O)cc(CSc3nnc(C)n3N)c2cc1C(C)C
  -6% | -14% | -1.9% | -2
68) COc1ccc(OC)c2sc(NNC(=O)COc3ccccc3)nc12
  0% | -4% | 1.3% | -16
69) CCOC(=O)Cc1csc(NC(=O)c2cccnc2)n1
  -9% | -1% | -4.4% | 4

Bioassay records: PubChem BioAssay, National Center for Advancing Translational Sciences (NCATS)
